# Vaccinia stage = Vaccinia orthopox stage-specific inhibition. 0.01% of 89,000 active. activity change (mCherry), % (no concentration beside the values). Vaccinia-infected cells, mCherry/Venus stage reporter fluorescence; active compounds read low; some inactives read as strong as hits;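 active = mCherry past -33% and 40 or more points under the early reporter, replicates agreeing; inconclusive = past -33% without that gap or agreement; tested in A549 cells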;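 also: scaled between vehicle wells and reference inhibitor wells; 23 nL library stock went into each well; one replicate is shown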
# Vaccinia stage Venus = also measured in Vaccinia stage; calls as there; activity change (Venus), %; measured here: Venus reporter, other viral stage;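 negative = less Venus signal; first of two replicates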
# Starred values were filed as active, the others as inactive; ? = inconclusive; nt = not tested or not shown; & = joins results of further samples. An excerpt; count on the stated rates, not on these rows.
SMILES	Vaccinia stage	Vaccinia stage Venus
O=C(CC1CC1)Nc1ccc2c(c1)[C@@H]1C[C@H](CC(=O)NC3CCCCC3)O[C@@H](CO)[C@@H]1O2	8	5
CCCN(C)C[C@H]1Oc2cc(-c3ccccc3C)ccc2S(=O)(=O)N([C@H](C)CO)C[C@H]1C	-26	-28
O=C(N[C@@H]1C=C[C@@H](CC(=O)N2CCCCC2)O[C@H]1CO)c1cccc(F)c1	-7	-14
C[C@H]1CN([C@@H](C)CO)C(=O)c2cccc(NC(=O)c3ccc(-c4nccs4)cc3)c2O[C@H]1CN(C)C(=O)Nc1ccc2c(c1)OCO2	14	13
C[C@@H]1CN([C@@H](C)CO)C(=O)c2cc(NS(=O)(=O)c3cn(C)cn3)ccc2O[C@@H](C)CCCCO[C@@H]1CN(C)C(=O)Cc1ccccc1	23	5
COC(=O)C[C@H]1CC[C@H]2[C@@H](COc3ccc(NC(=O)Nc4cccc(C#N)c4)cc3C(=O)N2C)O1	12	8
CC(C)NC(=O)N(C)C[C@H]1OCCCC[C@@H](C)Oc2ccc(NC(=O)CCCN(C)C)cc2C(=O)N([C@@H](C)CO)C[C@H]1C	19	14
O=C(C[C@H]1CC[C@@H]2[C@H](COC[C@H](O)CN2C(=O)c2ccc(F)cc2)O1)NC1Cc2ccccc2C1	21	21
Cc1noc(C)c1NC(=O)Nc1ccc2c(c1)C(=O)N([C@H](C)CO)C[C@H](C)[C@@H](CN(C)C(=O)NC(C)C)O2	21	15
O=C(C[C@@H]1CC[C@H]2[C@@H](COC[C@@H](O)CN2C(=O)c2ccccc2F)O1)NCc1ccccc1	10	9
COc1cccc(S(=O)(=O)N(C)C[C@@H]2Oc3cc(C#CCN(C)C)ccc3S(=O)(=O)N([C@@H](C)CO)C[C@H]2C)c1	-2	-5
CO[C@H]1CN(C)C(=O)c2cc(NC(=O)c3ccccc3F)ccc2OC[C@H](C)N(C(C)=O)C[C@@H]1C	11	16
COCC(=O)Nc1ccc2c(c1)C(=O)N(C)[C@H]1CC[C@@H](CC(=O)Nc3ccccc3)O[C@H]1CO2	-4	6
CN(C)C(=O)c1ccc(-c2ccc([C@@H]3[C@@H](CO)N4CCCCN(C(=O)C5CCC5)C[C@@H]34)cc2)cc1	8	0
COCC(=O)Nc1ccc2c(c1)OC[C@@H](C)N(Cc1ccccn1)C[C@H](C)[C@@H](OC)CN(C)C2=O	16	15
CCC(=O)N(C)C[C@@H]1Oc2ncc(C#Cc3cccnc3)cc2C(=O)N([C@H](C)CO)C[C@H]1C	23	13
CCCC#Cc1ccc([C@H]2[C@@H](CO)N3C(=O)CN(C(=O)CN4CCOCC4)C[C@H]23)cc1	7	3
O=C(C[C@@H]1CC[C@@H](NC(=O)Nc2cc(F)ccc2F)[C@@H](CO)O1)NCCCN1CCOCC1	5	3
C[C@H]1CN([C@@H](C)CO)C(=O)c2cc(/C=C/c3ccccc3)cnc2O[C@H]1CN(C)C(=O)C1CCC1	-10	-19
C[C@@H]1CN([C@@H](C)CO)C(=O)Cc2cc(NC(=O)c3ccncc3)ccc2O[C@H]1CN(C)S(=O)(=O)c1ccc(Cl)cc1	13	4
C[C@H](CO)N1C[C@H](C)[C@H](CN(C)CC2CC2)Oc2c(NC(=O)C3CCCCC3)cccc2C1=O	8	12
Cn1cnc(S(=O)(=O)N2CCCCN3[C@@H](CO)[C@@H](c4ccc(-c5ccccc5F)cc4)[C@@H]3C2)c1	-8	-12
O=C(O)C[C@H]1CC[C@@H](NC(=O)c2ccccc2F)[C@@H](CO)O1	3	1
C[C@H](CO)N1C[C@H](C)[C@H](CN(C)Cc2ccccc2)Oc2c(NC(=O)c3nc4ccccc4s3)cccc2C1=O	-16	-17
CCCC#Cc1ccc([C@H]2[C@@H](C#N)N(C(=O)C3CCCC3)[C@H]2CO)cc1	-31	-21

# (cont.)
SMILES	Vaccinia stage	Vaccinia stage Venus
Cc1ccccc1S(=O)(=O)N1CC(=O)N2[C@H](C1)[C@H](c1ccc(C#CCC3CCCC3)cc1)[C@@H]2CO	-17	-14
COc1cccc(NC(=O)N2C[C@@H](O)COC[C@@H]3O[C@H](CC(=O)NCCCN4CCOCC4)CC[C@H]32)c1	23	12
C[C@@H]1CN([C@@H](C)CO)S(=O)(=O)c2ccc(C#CCC3CCCC3)cc2O[C@H]1CN(C)Cc1ccc(C(=O)O)cc1	4	0
Cc1cccc(S(=O)(=O)N[C@H]2CC[C@H](CCn3cc(-c4ccccn4)nn3)O[C@H]2CO)c1	-12	-3
C[C@@H]1CN([C@@H](C)CO)C(=O)c2cc(NC(=O)NC3CCCCC3)ccc2O[C@H]1CN(C)C(=O)Nc1ccccc1	11	10
C[C@H](CO)N1C[C@H](C)[C@@H](CN(C)C(=O)Nc2cccc3ccccc23)Oc2c(NC(=O)c3ccncc3)cccc2C1=O	10	6
CNC[C@@H]1Oc2c(NS(=O)(=O)c3ccc(C)cc3)cccc2C(=O)N([C@H](C)CO)C[C@@H]1C	-11	-4
Cc1ccc(S(=O)(=O)N(C)C[C@H]2Oc3c(NC(=O)C4CC4)cccc3C(=O)N([C@H](C)CO)C[C@H]2C)cc1	-3	1
CCCC#Cc1cnc2c(c1)C(=O)N([C@@H](C)CO)C[C@H](C)[C@@H](CN(C)C(=O)c1ccc(F)cc1)O2	17	12
C[C@@H]1CN([C@H](C)CO)C(=O)c2cc(C#CCc3ccccc3)cnc2O[C@@H]1CN(C)Cc1cccc(C(=O)O)c1	10	6
C[C@@H]1CCCCO[C@@H](CN(C)C(=O)Nc2ccc(F)cc2)[C@H](C)CN([C@@H](C)CO)C(=O)c2cc(NS(=O)(=O)c3ccccc3)ccc2O1	-25	-22
COc1ccccc1-c1cn(CC[C@@H]2CC[C@H](NC(=O)c3cnccn3)[C@@H](CO)O2)nn1	-1	3
CO[C@H]1CN(C)C(=O)c2ccc(NS(=O)(=O)c3c(C)noc3C)cc2OC[C@@H](C)NC[C@@H]1C	20	9
CC(C)NC(=O)Nc1cccc2c1O[C@H](CN(C)C(=O)Nc1cccc3ccccc13)[C@@H](C)CN([C@@H](C)CO)C2=O	?	nt
CC(C)NC(=O)Nc1ccc2c(c1)C(=O)N([C@H](C)CO)C[C@H](C)[C@H](CN(C)Cc1ccncc1)OCCCC[C@@H](C)O2	29	3
COc1cccc(NC(=O)N2CC(=O)N3[C@H](C2)[C@H](c2ccc(C#CC4CCCC4)cc2)[C@@H]3CO)c1	?	nt
O=C(CN1CCOCC1)NCC[C@H]1CC[C@H](NC(=O)Nc2ccc(F)cc2)[C@@H](CO)O1	10	2
CN(C)CC#Cc1ccc([C@@H]2[C@@H](CO)N3CCCCN(C(=O)C4CC4)C[C@H]23)cc1	21	15
OC[C@H]1[C@@H](c2ccc(Br)cc2)[C@@H]2CNCCCCN12	1	1
CC(C)C#Cc1ccc([C@@H]2[C@@H](CO)N3C(=O)CN(C(=O)Cc4ccccc4)C[C@H]23)cc1	-25	-20
O=C(C1CC1)N1[C@@H]2CNc3ccccc3[C@@H]2[C@@H]1CO	4	9
COCC#Cc1ccc2c(c1)O[C@@H](CN(C)C(=O)CN(C)C)[C@@H](C)CN([C@H](C)CO)S2(=O)=O	11	6
COc1ccc(S(=O)(=O)N[C@H]2C=C[C@@H](CC(=O)O)O[C@H]2CO)cc1	8	9
C[C@H]1CN([C@@H](C)CO)S(=O)(=O)c2ccc(C#Cc3ccccn3)cc2O[C@H]1CN(C)Cc1ccccc1	11	9
COCCNC(=O)C[C@@H]1CC[C@@H]2[C@@H](COc3ccc(NC(=O)C4CCOCC4)cc3C(=O)N2C)O1	1	1

# Individual results from above:
# `CC(C)C#Cc1ccc([C@@H]2[C@@H](CO)N3C(=O)CN(C(=O)Cc4ccccc4)C[C@H]23)cc1` @ Vaccinia stage Venus = -20
# `CCCC#Cc1ccc([C@H]2[C@@H](CO)N3C(=O)CN(C(=O)CN4CCOCC4)C[C@H]23)cc1` @ Vaccinia stage Venus = 3

# Whole records, quoted from the list. Order of values: Vaccinia stage, Vaccinia stage Venus
# C[C@@H]1CN([C@@H](C)CO)S(=O)(=O)c2ccc(C#CCC3CCCC3)cc2O[C@H]1CN(C)Cc1ccc(C(=O)O)cc1 is listed with 4, 0
# CNC[C@@H]1Oc2c(NS(=O)(=O)c3ccc(C)cc3)cccc2C(=O)N([C@H](C)CO)C[C@@H]1C is listed with -11, -4
# CCCC#Cc1cnc2c(c1)C(=O)N([C@@H](C)CO)C[C@H](C)[C@@H](CN(C)C(=O)c1ccc(F)cc1)O2 is listed with 17, 12
# C[C@H](CO)N1C[C@H](C)[C@@H](CN(C)C(=O)Nc2cccc3ccccc23)Oc2c(NC(=O)c3ccncc3)cccc2C1=O is listed with 10, 6
# COCC#Cc1ccc2c(c1)O[C@@H](CN(C)C(=O)CN(C)C)[C@@H](C)CN([C@H](C)CO)S2(=O)=O is listed with 11, 6

# Next part:
SMILES	Vaccinia stage	Vaccinia stage Venus
COc1ccc(S(=O)(=O)N(C)C[C@@H]2OCCCC[C@@H](C)Oc3ccc(NC(=O)Nc4ccc(C(F)(F)F)cc4)cc3C(=O)N([C@@H](C)CO)C[C@@H]2C)cc1	-3	7
C[C@@H]1CN([C@H](C)CO)C(=O)c2cc(NC(=O)CCCN(C)C)ccc2O[C@@H](C)CCCCO[C@H]1CN(C)Cc1ccncc1	0	5
COc1ccc(-c2cnc3c(c2)C(=O)N([C@H](C)CO)C[C@H](C)[C@H](CN(C)S(=O)(=O)c2cccs2)O3)cc1	-20&-10	-16&-16
CCCC(=O)Nc1ccc2c(c1)OC[C@H](C)N(Cc1ccncc1)C[C@H](C)[C@@H](OC)CN(C)C2=O	7	8
O=C(Nc1ccc(F)cc1)N1CC(=O)N2[C@H](C1)[C@@H](c1ccc(-c3ccc(F)cc3)cc1)[C@@H]2CO	?	nt
CN1c2ccc(-c3ccc(F)cc3)cc2[C@@H]2[C@@H](CCN2C(=O)Cc2ccccn2)[C@@H]1CO	-31	-21
C[C@H](CO)N1C[C@H](C)[C@H](CN(C)S(=O)(=O)c2ccc(Cl)cc2)Oc2ccc(NC(=O)Cc3ccccc3)cc2CC1=O	-30	-29
CO[C@@H]1CN(C)C(=O)c2cc(NC(=O)C3CC3)ccc2OC[C@H](C)N(CCC(F)(F)F)C[C@@H]1C	-11	-15
O=C(C[C@H]1C=C[C@@H](NS(=O)(=O)c2ccccc2)[C@@H](CO)O1)N1CCc2ccccc2C1	4	5
CC(=O)N(C)C[C@@H]1Oc2cc(C#C[C@@H](C)O)ccc2S(=O)(=O)N([C@H](C)CO)C[C@@H]1C	8	6
O=C(c1cccc(F)c1)N1CC(=O)N2[C@@H](CO)[C@H](c3ccc(/C=C/c4ccccc4)cc3)[C@@H]2C1	-4	-4
Cc1noc(C)c1S(=O)(=O)Nc1ccc2c(c1)CC(=O)N([C@H](C)CO)C[C@H](C)[C@H](CN(C)S(=O)(=O)c1ccccc1)O2	21	24
C[C@H](CO)N1C[C@H](C)[C@H](CN(C)S(=O)(=O)c2cn(C)cn2)OCCCC[C@H](C)Oc2ccc(NC(=O)C3CCCCC3)cc2C1=O	8	-3
CC(C)C(=O)Nc1ccc2c(c1)C(=O)N(C)[C@H]1CC[C@H](CC(=O)NCc3ccc(F)cc3)O[C@@H]1CO2	-1	-7
CCCNC(=O)C[C@@H]1CC[C@H]2[C@@H](COC[C@@H](O)CN2Cc2cccc(F)c2)O1	4	9
O=C(C[C@H]1CC[C@@H]2[C@H](COC[C@@H](O)CN2C(=O)Nc2ccccc2)O1)NCc1ccccc1F	2	4
C[C@@H]1CN([C@@H](C)CO)C(=O)c2cc(NC(=O)Nc3ccccc3)ccc2O[C@@H](C)CCCCO[C@@H]1CN(C)S(=O)(=O)c1ccccc1	22	21
CCCNC(=O)N1C[C@@H](O)COC[C@H]2O[C@H](CC(=O)N3CCN(C)CC3)CC[C@@H]21	15	6
C[C@@H]1CN([C@H](C)CO)C(=O)c2cc(C#CCc3ccccc3)cnc2O[C@@H]1CN(C)Cc1ccccn1	-13	-15
CCCNC(=O)Nc1ccc2c(c1)C(=O)N(C)C[C@@H](OC)[C@H](C)CN[C@@H](C)CO2	0	6
COCC#Cc1ccc2c(c1)O[C@@H](CN(C)C(=O)C1CCCCC1)[C@@H](C)CN([C@@H](C)CO)S2(=O)=O	-2	-3
O=C(C[C@H]1C[C@H]2c3cc(NC(=O)C4CCOCC4)ccc3O[C@H]2[C@@H](CO)O1)NCc1cccnc1	9	17
CCCNC(=O)N(C)C[C@@H]1Oc2ncc(C#CCc3ccccc3)cc2C(=O)N([C@H](C)CO)C[C@H]1C	8	11
Cc1noc(C)c1S(=O)(=O)Nc1ccc2c(c1)CC(=O)N([C@H](C)CO)C[C@H](C)[C@@H](CN(C)C)O2	2	10
CO[C@@H]1CN(C)C(=O)c2ccc(NC(=O)Nc3ccccc3)cc2OC[C@H](C)N(C(=O)Nc2c(C)noc2C)C[C@@H]1C	-7	-5

# The listing continues.
SMILES	Vaccinia stage	Vaccinia stage Venus
O=C(c1ccccc1F)N1CC2(C1)[C@@H](c1ccccc1)[C@H](CO)N2CC1CC1	12	14
COc1ccc(-c2ccc([C@H]3[C@H](CO)N4C(=O)CN(Cc5ccc(F)cc5)C[C@@H]34)cc2)cc1	-7	-8
C[C@H]1CN([C@@H](C)CO)C(=O)Cc2cc(NS(=O)(=O)c3ccccc3)ccc2O[C@@H]1CN(C)Cc1ccccc1	0	0
C[C@@H]1CCCCO[C@H](CN(C)C(=O)C2CCCCC2)[C@@H](C)CN([C@H](C)CO)C(=O)c2cc(NS(=O)(=O)c3ccc(F)cc3)ccc2O1	7	-1
CCNC(=O)C[C@@H]1CC[C@@H](NS(=O)(=O)c2ccc(F)cc2)[C@@H](CO)O1	-2	-5

# Among those listed so far, two have a Cl atom.
SMILES	Vaccinia stage	Vaccinia stage Venus
C[C@@H]1CN([C@@H](C)CO)C(=O)Cc2cc(NC(=O)c3ccncc3)ccc2O[C@H]1CN(C)S(=O)(=O)c1ccc(Cl)cc1	13	4
C[C@H](CO)N1C[C@H](C)[C@H](CN(C)S(=O)(=O)c2ccc(Cl)cc2)Oc2ccc(NC(=O)Cc3ccccc3)cc2CC1=O	-30	-29
